# Sfp inh – Sfp phosphopantetheinyl transferase inhibition. AID 1490. Potency, µM, for the others: max response, negative = inhibition, most hits filed as inhibitors. actives 3.5% (n = 310,000). Biochemical Sfp PPTase activity, qHTS. Q9F4F7; active means well fitted inhibition curve with a large enough effect; inconclusive means small, poorly fitted or top-dose-only effect, or another doubt; inactive means no such curve, though single readings can be large or run the other way;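 further: the enzyme is Sfp with the accession as filed and its product quenches rhodamine fluorescence; potency means the concentration at half of the fitted maximal effect; 0% = enzyme reaction without inhibitor and -100% = no enzyme wells; top concentration of the series not given in the record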
#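 Sfp 15 nM + cpd, 15 min RT; start w/ rhodamine-CoA 5 uM, BHQ-2-YbbR 12.5 uM (final); 50 mM Hepes pH 7.6, 10 mM MgCl2, 0.01% NP-40, 0.01% BSA; read 525/598 nm at 0 and 30 min.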
# Menin-MLL FL inh – displaces fluorescein MLL peptide from human menin; FP activity change, % at 61.4 µM; Fluorescence polarization, fluorescein-MLL peptide displacement from menin; 290,000 tested, under 10 active; inconclusive = falling polarisation curve, or a change in total fluorescence; inactive = total fluorescence flat and polarisation flat or rising; no compound was filed as active; the % refers to the polarisation; negative = inhibition;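 further: % of control where 0% means no effect; inhibitors lower the polarisation; unlabelled MLL peptide was the positive control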
# CtBP-E1A blk – CtBP/E1A binding inhibition. actives 0.49% (n = 340,000). AlphaScreen GST-E1A/His-CtBP binding, 1536-well; hits give low values; control for the full effect not named in the record. activity change, % (test concentration not listed); in the data active means activity change below about -65%; inconclusive means about -30% to -65%; inactive means above about -30%; further: on the % scale 0 is the no-effect control and ±100 the full control effect; compound concentration not given in the record
#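 Homogeneous bead-based format: GST-tagged E1A captured on glutathione donor beads, His-tagged CtBP on nickel acceptor beads; compounds precede bead addition by 2 h at 37 °C.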
# ClpP mod – qHTS Assay for Activators of ClpP | actives 1.9% (n = 340,000) | purified B. subtilis ClpP, FRET peptide cleavage, 20 min | AID 651965, 2013 | ATP-dependent Clp protease proteolytic subunit (Bacillus subtilis (strain 168)), P80244 | Potency, µM (highest dose often 57.5 µM), for inactives: top-dose activity change, negative = active; active = well fitted falling curve with a large enough effect; inconclusive = small, poorly fitted or top-dose-only effect; inactive = no such curve, though single readings can be large or run the other way; further: potency means the concentration at half of the fitted maximal effect; the source files actives as falling curves though it sought activators and does not explain the sign; nearly all actives have a fitted effect of over 65% in size; many hits overshoot -100%
# Target sequence (P80244 whole entry, looked up): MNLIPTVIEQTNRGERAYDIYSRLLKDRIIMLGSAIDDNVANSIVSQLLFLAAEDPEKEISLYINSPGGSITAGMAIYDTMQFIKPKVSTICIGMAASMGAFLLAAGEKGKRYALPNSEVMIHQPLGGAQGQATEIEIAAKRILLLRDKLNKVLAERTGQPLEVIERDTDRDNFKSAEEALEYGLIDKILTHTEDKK
#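 Purified B. subtilis ClpP, 10 microg/mL final in Tris/HCl pH8 with KCl, BSA, glycerol and Tween-20, cleaved an Abz/nitrotyrosine-quenched decapeptide. Fluorescence (ex 320, em 430) was read at 0 and 20 min at room temperature. Delta was normalized to 5.8 microM ADEP and DMSO/no-enzyme controls.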
# gsp ag – activates gsp, the McCune-Albright syndrome mutation. gsp mutant cells, cAMP HTRF, 30 min; control for the full effect not named in the record. Potency, µM (series often up to 76.9 µM), for inactives: at the top dose activation (cAMP increase), hits mostly activators. actives 0.13% (n = 340,000). AID 624287; active = well fitted activation curve with a large enough effect; inconclusive = small, poorly fitted or top-dose-only effect, or another doubt; inactive = no such curve, though single readings can be large or run the other way; cell line not stated here;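 further: phosphodiesterase inhibitor Ro 20-1724 added with compounds to block cAMP breakdown; potency means the concentration at half of the fitted maximal effect; nearly all actives have a fitted effect of over 60% in size; about a fifth of the inactives were tested at one dose only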
#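 Cells in DMEM/10% FBS with G418 were pretreated with compounds in DMSO plus […] (300 uM stock) for 30 min at 37C. cAMP was measured by HTRF (cAMP-d2 plus anti-cAMP antibody-K) after 30 min at room temperature.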
# TRPV1 PAM – human TRPV1 potentiation; actives 0.02% (n = 320,000); Q8NER1; TRPV1-expressing cells, Fluo-8 calcium influx, capsaicin EC20 potentiation; host cell line not named in the record; control for the full effect not named in the record; potentiation, % at 8.33 µM; AID 540277; active means potentiation above 80%; inconclusive means 30% to 80%; inactive means below 30%; further: 0% is about no effect
# Target sequence (Q8NER1 whole entry, looked up): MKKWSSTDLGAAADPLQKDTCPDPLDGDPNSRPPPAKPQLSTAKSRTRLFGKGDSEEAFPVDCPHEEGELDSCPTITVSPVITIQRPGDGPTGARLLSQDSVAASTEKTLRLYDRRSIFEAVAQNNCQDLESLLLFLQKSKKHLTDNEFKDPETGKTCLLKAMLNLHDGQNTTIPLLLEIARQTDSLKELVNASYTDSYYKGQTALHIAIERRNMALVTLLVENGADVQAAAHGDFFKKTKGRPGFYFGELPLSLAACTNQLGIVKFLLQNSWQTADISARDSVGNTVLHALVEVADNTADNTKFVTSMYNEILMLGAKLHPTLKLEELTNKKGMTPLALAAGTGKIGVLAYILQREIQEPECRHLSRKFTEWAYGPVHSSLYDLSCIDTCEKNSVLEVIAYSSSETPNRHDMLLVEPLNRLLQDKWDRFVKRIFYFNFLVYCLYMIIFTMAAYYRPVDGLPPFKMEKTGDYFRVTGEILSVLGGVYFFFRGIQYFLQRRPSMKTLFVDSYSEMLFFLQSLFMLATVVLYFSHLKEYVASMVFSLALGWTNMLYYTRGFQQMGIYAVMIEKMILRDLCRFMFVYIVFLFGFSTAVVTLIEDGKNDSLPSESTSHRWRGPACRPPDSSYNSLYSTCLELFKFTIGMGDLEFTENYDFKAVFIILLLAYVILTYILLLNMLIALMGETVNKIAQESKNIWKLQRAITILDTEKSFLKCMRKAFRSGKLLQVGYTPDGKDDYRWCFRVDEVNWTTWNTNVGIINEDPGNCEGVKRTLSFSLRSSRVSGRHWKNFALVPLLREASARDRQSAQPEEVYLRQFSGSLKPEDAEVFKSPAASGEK
#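 Cells expressing TRPV1 were dye-loaded with Fluo-8 and read kinetically: 10 s baseline, 3 min after compound (agonist portion), then 2 min after EC20 capsaicin (allosteric enhancer portion). Calcium-bound dye fluorescence at 480/520 nm.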
# gsp antag – antagonizes gsp, the McCune-Albright syndrome mutation | gsp-mutant cells, cAMP HTRF, 30 min; control for the full effect not named in the record | actives 0.4% (n = 340,000) | Potency, µM (titrated, usually from 76.9 µM), without a hit: top-dose activity change, negative = inhibition, usual class: inhibitors; active = falling curve of any shape with a large fitted effect; inconclusive = falling curve, mostly with a smaller effect; inactive = flat or rising curve; cell line not stated here;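 further: intracellular cAMP measured with PDE inhibitor Ro 20-1724 present during compound exposure; potency means the concentration at half of the fitted maximal effect; on the % scale 0 is the no-effect control and ±100 the full control effect; nearly all actives have a fitted effect of over 65% in size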
#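 HTRF cAMP measurement after 30 min RT detection following 30 min, 37C compound treatment alongside […] (added as 300 uM solution) in G418-selected cells seeded at 2000/well and grown 16–24 h.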
# An asterisk follows results filed as active; ? = inconclusive; . = not tested or not shown; & = joins results of further samples; [ ] = remark or other dose.
No.	canonical_smiles	Sfp inh	Menin-MLL FL inh	CtBP-E1A blk	ClpP mod	gsp ag	TRPV1 PAM	gsp antag
1	Cc1ccc(Cn2c(CCCO)nc3ccccc32)cc1	10%	1.0	2	0.3%	12%[15.4 µM]	8	-2%
2	NC(=O)CC(NSc1ccccc1[N+](=O)[O-])C(=O)O (stereo not given)	50µM*	0.5	0	-2.0%	.	28	4%
3	C#CC1(NC(=S)Nc2cccc(OC)c2)CCCCC1	.	.	2	-1.4%	-34%	.	.
4	CC(=O)c1ccc(N2CCN(C(=O)c3ccc(NC4=NC5CS(=O)(=O)CC5S4)cc3)CC2)cc1 (stereo not given)	8%	-4.1	-1	-5.8%	-47%[inhibitor]	3	8%
5	CC(CCc1ccccc1)N1CCN(C)CC1 (stereo not given)	12%	-1.8	-3	-0.6%	13%[15.4 µM]	25	8%
6	CC(=O)CSc1nnc(CSc2ncccn2)n1C1CCCCC1	2%	6.0	0	-1.1%	16%	3	-1%
7	CCC(C)(C)NC(=O)CN(C(=O)c1ccc(N2CCCC2)nc1)c1ccc(F)cc1	-4%	0.9	.	-3.6%	-19%	-7	-9%
8	O=C(NC1CCCC1)C(c1ccccc1)N(Cc1ccc2c(c1)OCO2)C(=O)Cc1cccs1 (stereo not given)	12%	2.9	-3	1.2%	?	-4	-13%
9	COc1cccc(NC(=O)COC(=O)c2ccccc2C(=O)N(C)c2ccccc2)c1	.	.	11	-1.3%	1%	19	-21%
10	CCC(C(=O)NC(C)(C)C)N(Cc1ccco1)C(=O)Cn1nnc(-c2ccc(F)cc2)n1 (stereo not given)	11%	1.2	-9	.	16%[15.4 µM]	14	-8%
11	O=C(COc1ccc(Br)cc1Cl)NC(=O)NC1CCCC1	.	.	.	1.0%	-16%	-7	-28%
12	Cc1cc(C)n2cc(CSc3nnnn3-c3ccc(Cl)cc3)nc2n1	?	3.5	-10	?	20%	-1	2%
13	Cc1nn(CCCC(=O)Nc2cccnc2)c(C)c1[N+](=O)[O-]	5%	0.0	14	.	25%	-4	7%
14	CCCCN1C(=O)N(C)C2NC(=O)NC21 (stereo not given)	21%	1.4	7	-2.9%	-8%	-2	7%
15	O=C(Nc1ccccc1C(=O)N1CCOCC1)c1ccc(CSc2ccccc2)cc1	3%	-1.5	-5	.	-7%[15.4 µM]	-11	.
16	CCC(CC)c1nnc(NC(=O)c2ccc(S(=O)(=O)N3CCc4ccccc4C3)cc2)s1	4%	.	0	-19%	-47%	?	0%
17	Cc1cc(C)c(S(=O)(=O)c2ccc(Cl)cc2)c(Cl)n1	15%	1.6	17	.	-3%[15.4 µM]	-7	-6%
18	Cc1c2cccn2cc[n+]1C	-4%	-4.8	-1	10µM*	-4%	22	10%
19	COc1ccc(C(=O)/C=C/c2ccccc2C(F)(F)F)cc1	-7%	1.9	4	0.1%	-21%	-6	3%
20	CC(OC(=O)CC(C)c1ccccc1)C(=O)Nc1ccc(Cl)cn1 (stereo not given)	.	.	9	-3.1%	-2%	-5	3%
21	O=C(NCCO)C(=O)NCC1OCCCN1S(=O)(=O)c1ccc2c(c1)OCCO2 (stereo not given)	10%	.	0	-0.4%	-26%	-7	15%
22	Cc1ccc(NC(=O)c2cc(NC(=O)/C=C\C(=O)O)ccc2N2CCCCC2)cc1	8%	.	-15	-2.7%	?	-4	-15%
23	COc1ccc(N2C(=O)CC(NCC#N)C2=O)cc1 (stereo not given)	-8%	-0.4	0	.	-28%	9	3%
24	CC(C)NC(=O)/C=C/C(=O)O	3%	1.0	12	.	6%	-22	5%
25	CCOC(=O)c1c(NC2OC(=O)c3c2ccc(OC)c3OC)sc(C(=O)OC(C)(C)C)c1C (stereo not given)	12%	5.0	11	0.3%	7%[15.4 µM]	-21	-34%
26	CCOc1ccc(/C=N/NC(=S)NC2CC3C=CC2C3)cc1 (stereo not given)	2%	3.4	.	-3.7%	8%	5	-10%
27	Cc1ccnc(NC(=O)c2cccc(S(=O)(=O)N3CCOCC3)c2)c1	.	.	-1	-14%	28%	-14	13%
28	CC(=O)Nc1ccc(C(=O)N/N=C/c2ccccc2OCc2ccccc2)cc1	16%	5.2	-2	.	-5%[15.4 µM]	-3	6%
29	Cc1cccc(NC(=O)CN(C)C(=O)C2CCCC2)c1C	.	.	14	-1.0%	-16%	-7	10%
30	COCCn1c(=N)c(C(=O)NCCc2ccc(OC)cc2)cc2c(=O)n3cccc(C)c3nc21	8%	5.8	0	-24%	1%	1	12%

# Limited to gsp antag, TRPV1 PAM and gsp ag, for some of the entries so far:
No.	Molecule	gsp antag	TRPV1 PAM	gsp ag
24	CC(C)NC(=O)/C=C/C(=O)O	5%	-22	6%
25	CCOC(=O)c1c(NC2OC(=O)c3c2ccc(OC)c3OC)sc(C(=O)OC(C)(C)C)c1C (stereo not given)	-34%	-21	7%[15.4 µM]
26	CCOc1ccc(/C=N/NC(=S)NC2CC3C=CC2C3)cc1 (stereo not given)	-10%	5	8%
27	Cc1ccnc(NC(=O)c2cccc(S(=O)(=O)N3CCOCC3)c2)c1	13%	-14	28%

# Reprinted at random: seven compounds from above.
No.	canonical_smiles	Sfp inh	Menin-MLL FL inh	CtBP-E1A blk	ClpP mod	gsp ag	TRPV1 PAM	gsp antag
24	CC(C)NC(=O)/C=C/C(=O)O	3%	1.0	12	.	6%	-22	5%
21	O=C(NCCO)C(=O)NCC1OCCCN1S(=O)(=O)c1ccc2c(c1)OCCO2 (stereo not given)	10%	.	0	-0.4%	-26%	-7	15%
25	CCOC(=O)c1c(NC2OC(=O)c3c2ccc(OC)c3OC)sc(C(=O)OC(C)(C)C)c1C (stereo not given)	12%	5.0	11	0.3%	7%[15.4 µM]	-21	-34%
27	Cc1ccnc(NC(=O)c2cccc(S(=O)(=O)N3CCOCC3)c2)c1	.	.	-1	-14%	28%	-14	13%
26	CCOc1ccc(/C=N/NC(=S)NC2CC3C=CC2C3)cc1 (stereo not given)	2%	3.4	.	-3.7%	8%	5	-10%
30	COCCn1c(=N)c(C(=O)NCCc2ccc(OC)cc2)cc2c(=O)n3cccc(C)c3nc21	8%	5.8	0	-24%	1%	1	12%
29	Cc1cccc(NC(=O)CN(C)C(=O)C2CCCC2)c1C	.	.	14	-1.0%	-16%	-7	10%

# More compounds
No.	canonical_smiles	Sfp inh	Menin-MLL FL inh	CtBP-E1A blk	ClpP mod	gsp ag	TRPV1 PAM	gsp antag
31	Cn1c(NC(=O)c2ccccc2)cc(=O)n(C)c1=O	22%	4.5	-5	-4.7%	?	.	-5%
32	CCN(CC)c1ccc(NC(=O)c2cccc(OC)c2)c(C)c1	-4%	-0.9	-9	0.2%	-22%	-14	-14%
33	CCOC(=O)C1CCCN(C(=O)c2cc(=O)c3ccccc3o2)C1 (stereo not given)	14%	0.9	3	-0.6%	-12%	5	9%
34	C[C@@H]1CN([C@H](C)CO)C(=O)Cc2cc(NC(=O)Cn3cnnn3)ccc2O[C@@H]1CN(C)Cc1ccc(Cl)c(Cl)c1	.	.	-18	-15%	.	.	-13%
35	CC(NC(=O)C1CCN(S(=O)(=O)c2ccc3c(c2)NC(=O)CO3)CC1)c1ccccc1 (stereo not given)	6%	0.7	0	0.0%	-24%	0	7%
36	CSc1cc(C)n(-c2ccc(Cl)cc2)c(=S)c1C(C)=O	?	1.8	-3	-0.3%	10%	3	3%
37	Cc1cc(C)c2oc(C(=O)N(Cc3cccs3)C3CCS(=O)(=O)C3)cc(=O)c2c1 (stereo not given)	10%	3.3	4	0.0%	-32%[inhibitor]	14	-13%
38	Cc1cccc(OCC(=O)Nc2ccccc2N2CCN(C(=O)C(C)C)CC2)c1C	-15%	5.8	5	24%	2%	-11	-3%
39	COc1cccc(C(=O)NCC(=O)OCC(=O)Nc2ncc(Cl)cc2Cl)c1	-1%	0.6	-7	.	-9%[15.4 µM]	4	1%
40	COc1ccc(NC(=O)C2(c3ccc(NC(=O)c4ccc(OC)c(OC)c4)cc3)CCCC2)cc1	8%	-1.9	6	?	44%	-11	10%
41	COC(=O)c1ccccc1NC(=O)CN1C(=O)C2CCCN2c2ncc(Cl)cc21 (stereo not given)	-27%	5.5	.	.	.	12	.
42	Cc1ccc(NC(=O)c2cc3ccccc3o2)cc1S(=O)(=O)N(C)C	?	1.5	4	5.8%	-56%[inhibitor]	-5	-12%
43	Cc1nc(S(=O)(=O)N(C)Cc2ccccc2)c(C#N)c(C)c1Cl	13%	3.8	1	-2.4%	18%	1	-10%
44	CCOCCCNC(=O)CCN1C(=O)c2ccccc2Sc2ncccc21	8%	3.0	-1	.	-7%	1	9%
45	COc1cccc(C(=O)OCc2cc(=O)oc3c(C)c(C)ccc23)c1OC	4%	-0.2	21	2.0%	-6%[15.4 µM]	-11	5%
46	CN(CCc1ccccc1)C(=O)c1ccc(NC(=O)Cc2ccc(NC(=O)C3CCN(C(=O)C4CCC4)CC3)cc2)cc1	.	.	2	0.5%	.	.	10%
47	O=C(/C=C/c1ccccc1)OCCN=C1NS(=O)(=O)c2ccccc21	19%	6.4	-21	.	-2%[15.4 µM]	6	.
48	Cc1ccc(CNC(=O)CSCC(=O)O)cc1	11%	1.2	-1	-0.6%	-5%	6	3%
49	O=C(NCCN1CCOCC1)c1ccc2c(c1)N(Cc1ccccc1)CCS2	-2%	2.5	-9	4.1%	?	.	0%
50	Cc1ccccc1-c1nc(CS(=O)(=O)CC(=O)NCCc2ccccc2)c(C)o1	4%	-8.2	-3	-2.0%&-7.1%	-16%	-13	-9%
51	Cc1ccc2nc3c(cc(C(=O)NCC4CCCO4)c(=N)n3CC3CCCO3)c(=O)n2c1 (stereo not given)	15%	1.2	-1	.	-3%	0	-2%
52	CC(SCc1ccccc1)C(=O)N/N=C/c1cc2c(cc1Br)OCO2 (stereo not given)	13%	5.3	0	-22%	-21%	14	?

# Some of the entries so far, screen by screen.
(47) O=C(/C=C/c1ccccc1)OCCN=C1NS(=O)(=O)c2ccccc21
(48) Cc1ccc(CNC(=O)CSCC(=O)O)cc1
assay / entry	47	48
Sfp inh	19%	11%
Menin-MLL FL inh	6.4	1.2
CtBP-E1A blk	-21	-1
ClpP mod	.	-0.6%
gsp ag	-2%[15.4 µM]	-5%
TRPV1 PAM	6	6
gsp antag	.	3%
